RGS16-Gao HTS = RGS16-Galphao interaction regulator (human) | bead-based flow cytometry RGS16-Galphao binding, fluorescence; actives lie on both sides | binding response (% of control), % at 10 µM | 220,000 tested, 0.38% active;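 active = below 25% or above 175%, edge rows of some plates excepted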;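 note: Galphao activated by GDP with aluminum fluoride before binding; 100% = wells without compound and 0% = beads without RGS; some results beyond the cut were filed as inactive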
INS promoter inh = TRM-6 insulin promoter activity inhibition. 130,000 tested, 0.9% active. inhibition, % at 2 µM. TRM-6 cells (human fetal islet line), insulin promoter-eGFP reporter, imaging; reporter expression induced with tamoxifen;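 active = inhibition above the mean plus 3 SD, with well images judged a real hit on visual review, cut at about 60% in these data, passing the limit was not always enough; inconclusive = inhibition over the cutoff but images rejected on review; inactive = inhibition not above the cutoff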
GALR2 agonist = GALR2 (human) receptor agonism; O43603; GALR2-expressing cells, agonist activation read-out; activation, %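 (tested at 5 µM)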; 140,000 tested, 0.48% active; AID 803;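 active = above mean plus 3 SD of all compounds, about 5% in these data, not always enough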;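 note: 0% = vehicle buffer wells and 100% = reference agonist at full effect; tested in CHO reporter cells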
HSV augment = HSV replication enhancement | HSV replication augmentation in cells, fold increase | maximum fold increase | 220,000 tested, 0.005% active;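 active = peak rise of 1.5-fold or more in the series; inconclusive = self-fluorescent or not available for retest; tested in PC3 cells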;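 note: first round at 10 µM; read as green reporter fluorescence; hits show the peak of a series up to 25 µM; 1 = signal of infected wells without compound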
PKD1 inh = inhibitors of human PKD1 kinase | PKD1 kinase fluorescence polarization assay | inhibition, %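 (about 10 µM by stock and volumes)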 | Q15139 | 200,000 tested, 0.056% active;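 active = inhibition of 50% or more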;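 note: controls were vehicle for no effect and a reference inhibitor for full effect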
Target sequence (Q15139 whole entry, looked up): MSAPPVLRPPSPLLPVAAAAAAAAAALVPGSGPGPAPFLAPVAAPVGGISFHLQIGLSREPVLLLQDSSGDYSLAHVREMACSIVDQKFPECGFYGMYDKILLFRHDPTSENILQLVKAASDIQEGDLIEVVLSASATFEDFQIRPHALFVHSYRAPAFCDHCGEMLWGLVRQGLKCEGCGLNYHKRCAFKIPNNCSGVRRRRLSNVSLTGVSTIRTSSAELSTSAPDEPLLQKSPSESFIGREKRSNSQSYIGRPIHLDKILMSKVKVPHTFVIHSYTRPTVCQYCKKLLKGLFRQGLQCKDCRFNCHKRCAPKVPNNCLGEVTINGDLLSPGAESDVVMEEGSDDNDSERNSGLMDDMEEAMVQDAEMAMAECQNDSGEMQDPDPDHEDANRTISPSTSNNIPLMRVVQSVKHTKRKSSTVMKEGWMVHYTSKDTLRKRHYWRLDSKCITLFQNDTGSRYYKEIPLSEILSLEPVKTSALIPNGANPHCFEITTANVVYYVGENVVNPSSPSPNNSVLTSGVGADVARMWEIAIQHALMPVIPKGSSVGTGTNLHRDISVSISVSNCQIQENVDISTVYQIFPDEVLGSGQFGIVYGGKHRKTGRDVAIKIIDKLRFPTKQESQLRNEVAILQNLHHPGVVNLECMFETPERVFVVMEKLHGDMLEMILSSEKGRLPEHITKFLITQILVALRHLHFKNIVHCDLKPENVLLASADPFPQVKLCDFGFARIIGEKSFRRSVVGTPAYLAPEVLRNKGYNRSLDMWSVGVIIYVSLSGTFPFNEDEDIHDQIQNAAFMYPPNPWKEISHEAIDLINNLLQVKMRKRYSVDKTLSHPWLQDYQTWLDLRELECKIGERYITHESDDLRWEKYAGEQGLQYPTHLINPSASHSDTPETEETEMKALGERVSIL
INS promoter inh cell count = also measured in INS promoter inh; calls as there; normalized cell count, %; measured here: cell count, toxicity; reference of the scale not given here;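 cells exposed to compound for 48 h; stained nuclei by imaging scaled within each plate; lower means fewer cells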
HSV augment primary fold = recorded beside HSV augment, whose call it bears; fold increase; compound at 10 µM; measured here: primary screen fold increase 10 uM; tested in PC3 cells;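 GFP signal in the first replicate; 1 = infected wells without compound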
* hit, by the source's call; i = inactive; ? = inconclusive; · = not tested or not shown. Rows are unselected. Share with any hit: about 1.3%.

SMILES	RGS16-Gao HTS	INS promoter inh	INS promoter inh cell count	GALR2 agonist	HSV augment	HSV augment primary fold	PKD1 inh
O=C(CCCOc1ccccc1)N1CCN(c2ccc(F)cc2)CC1	104	-367	62	0.1	i	1	7
Cc1ccc(N(C(=O)C2CCC(=O)N2)C2(C(=O)NC3CCCCC3)CCCCC2)cc1 (stereo unspecified)	99	50	84	-0.5	i	0.85	-6
O=C(Cn1c(-c2ccccn2)nc2ccccc21)N/N=C/c1cccnc1	100	·	·	·	i	0.48	·
Cc1ccc(S(=O)(=O)N(C)c2ccccc2C(=O)Nc2ccc3c(c2)OCCO3)cc1	99	·	·	·	i	0.91	·
O=C(NC(=S)Nc1cccc(Cl)c1N1CCCC1)c1ccc(-c2cccc([N+](=O)[O-])c2)o1	102	11	132	-5.4	i	1	-15
CC(C)CC(=O)Nc1ccc(N2CCN(S(C)(=O)=O)CC2)cc1	56	-6	34	-0.4	i	1	-7
CCOC(=O)C1(Cc2ccccc2C)CCCN(Cc2ccc(NC(C)=O)cc2)C1 (stereo unspecified)	105	·	·	·	i	1	-11
CN1CC(=O)N(CC(=O)Nc2ccc(SC(F)F)cc2)C1=O	114	-29	109	·	i	1.2	-2
Cc1ccc2c(C(=O)CN3CCN(c4ccccc4)CC3)c(C)[nH]c2c1	99	-3	81	-2.3	i	0.96	9
C=CCNC(=S)N/N=C/c1ccc(-c2cc(Cl)ccc2Cl)o1	98	-8	78	-4.1	i	0.92	-15
COC(=O)c1cc(N=Nc2sc(N)nc2C)cc(C(=O)OC)c1	95	·	·	·	i	0.78	·
O=C(CSc1nc2ccsc2c(=O)n1CC1CCC(C(=O)O)CC1)c1ccc(F)cc1 (stereo unspecified)	102	·	·	·	i	1.1	-4
CCOC(=O)c1ccc(Cl)c(S(=O)(=O)N2CCCC2)c1	102	·	·	·	i	1	-8
Cc1cccc(CS(=O)(=O)Cc2ccc(C(=O)O)o2)c1	102	-17	101	-1.1	i	1.1	-16
CC(Oc1ccccc1)C(=O)NC1CCN(Cc2ccccc2)CC1 (stereo unspecified)	99	16	155	-1.2	i	0.89	-7
CS(=O)(=O)CCC(C(=O)n1nnc2ccccc21)N1C(=O)c2ccccc2C1=O (stereo unspecified)	93	-3	139	0.2	i	0.99	-7
COc1ccc(CCNCC2C(Oc3ccc(Cl)cc3)C(=O)N2c2ccccc2C)cc1OC (stereo unspecified)	93	·	·	·	i	0.98	-1
CCc1c(C(=O)N/N=C/c2ccc(C)o2)csc1C	110	71	126	-2.6	i	0.94	4
Cc1noc(C)c1S(=O)(=O)Nc1ccc(C(=O)N2CCN(c3ccc(Cl)cc3)CC2)cc1	100	·	·	-0.1	·	·	4
O=C(CCS(=O)(=O)c1ccc(Br)cc1)Nc1ccc2c(c1)OCO2	115	-30	128	-2.5	i	0.77	-3
Cc1ccc(C)c(NC(=O)c2ccccc2Sc2ccc([N+](=O)[O-])cc2Cl)c1	127	-7	66	-1.0	i	1	-16
C=C1Cn2c(nnc2-c2ccc(Cl)cc2)S1	102	·	·	-2.0	i	0.84	-5
CCOC(=O)CSc1nc2ccccc2c(=O)n1CC1COc2ccccc2O1 (stereo unspecified)	-138	·	·	-0.3	i	0.78	0
COc1ccccc1N(C(=O)c1snc(C(N)=O)c1N)C(C(=O)NC1CCCC1)c1ccco1 (stereo unspecified)	98	33	80	0.8	i	0.85	15
Cc1cccc(C)c1NC(=S)/N=C/N(C)C	100	8	107	·	i	0.95	8
COC(=O)c1ccccc1S(=O)c1snnc1C (stereo unspecified)	100	15	65	·	i	0.96	6
CCN(CC)c1nc(Nc2ccccc2)nc(Oc2ccc(=O)n(C)n2)n1	98	-16	73	-1.0	i	0.83	-5
O=C(O)/C=C/C(=O)N1CCN(c2ccc(F)cc2)CC1	101	0	61	·	i	0.97	-8
COc1ccc(C(=O)NCCCc2nc3ccccc3n2Cc2cc(C)ccc2C)cc1OC	104	2	70	-0.3	i	0.89	-8
COc1cc(NC(=S)N2CCN(C(c3ccccc3)c3ccccc3)CC2)cc(OC)c1	107	-17	92	-0.6	?	·	15
O=c1nc(SCc2ccccc2Cl)nc(-c2ccc(Cl)cc2)[nH]1	104	·	·	·	i	1.2	·
CCC(=O)Nc1ccc(Nc2nc(Cl)nc(Nc3ccc(NC(=O)CC)cc3)n2)cc1	110	27	117	·	i	0.88	-4
CCC(C(=O)c1ccccc1)N(C(=O)c1ccccc1Cl)N1C(=O)C2C3C=CC(C3)C2C1=O (stereo unspecified)	113	-56	44	1.2	·	·	8
CCc1ccc(NC2=NCC(=O)N2c2ccc3c(c2)OCCO3)cc1	104	44	158	-3.4	i	0.8	5
CCC(CC)c1nnc(NC(=O)Oc2ccccc2)s1	99	50	84	-4.7	i	0.95	2
COc1ccc(NC(=O)c2cn(-c3ccccc3)nc2SC)cc1	87	·	·	·	i	0.92	·
O=C(CN1CCN(S(=O)(=O)c2ccc(F)cc2)CC1)Nc1ccc2c(c1)OCCO2	101	-18	110	0.8	i	0.88	-8
COc1ccc(NS(=O)(=O)c2ccc(O)c(C(=O)OCC(=O)NC(C)C3CC4CCC3C4)c2)cc1 (stereo unspecified)	98	·	·	·	i	1	3
COC(=O)c1nc(-c2ccc(C)cc2)oc1N(C)C	103	·	·	-2.0	i	0.98	-9
O=C(NCc1ccco1)c1cnn2c(C(F)(F)F)cc(-c3cccs3)nc12	96	·	·	1.6	i	0.75	14
CCCn1c(SCC(=O)Nc2cc(Cl)ccc2Cl)n[nH]c1=O	101	·	·	·	i	0.89	-2
COc1cc([N+](=O)[O-])c(N2CCOCC2)c([N+](=O)[O-])c1OC	98	·	·	·	i	1	-5
Cc1nc(N2N=C(c3ccc(Cl)cc3)CC2c2ccco2)sc1C(=O)N(C)C (stereo unspecified)	102	-17	154	·	i	0.86	-5
CC1CCc2nn(CC(=O)Nc3ccc(F)cc3F)cc2C1 (stereo unspecified)	100	·	·	-2.9	i	0.97	-11
CCCCN1C(=S)NC[C@@H]1Cc1ccc(O)cc1	105	·	·	·	i	0.97	·
Cc1c(-c2cc(C(=O)O)c3ccccc3n2)cnn1C	104	-44	86	·	i	0.94	2
Nc1[nH]n2c(=O)cc(-c3ccccc3)nc2c1N=Nc1ccc(S(N)(=O)=O)cc1	110	33	105	·	i	0.89	-3
CN(C)CCOCCOc1ccc(Cl)cc1Br	100	·	·	·	i	0.98	-3

4 of the compounds above, with each value named.
> CN(C)CCOCCOc1ccc(Cl)cc1Br
  RGS16-Gao HTS = 100	INS promoter inh = ·	INS promoter inh cell count = ·	GALR2 agonist = ·	HSV augment = i	HSV augment primary fold = 0.98	PKD1 inh = -3
> CC1CCc2nn(CC(=O)Nc3ccc(F)cc3F)cc2C1 (stereo unspecified)
  RGS16-Gao HTS = 100	INS promoter inh = ·	INS promoter inh cell count = ·	GALR2 agonist = -2.9	HSV augment = i	HSV augment primary fold = 0.97	PKD1 inh = -11
> CCCCN1C(=S)NC[C@@H]1Cc1ccc(O)cc1
  RGS16-Gao HTS = 105	INS promoter inh = ·	INS promoter inh cell count = ·	GALR2 agonist = ·	HSV augment = i	HSV augment primary fold = 0.97	PKD1 inh = ·
> Nc1[nH]n2c(=O)cc(-c3ccccc3)nc2c1N=Nc1ccc(S(N)(=O)=O)cc1
  RGS16-Gao HTS = 110	INS promoter inh = 33	INS promoter inh cell count = 105	GALR2 agonist = ·	HSV augment = i	HSV augment primary fold = 0.89	PKD1 inh = -3

3 entries out of the list, sorted by SMILES length, lowest first.
SMILES	RGS16-Gao HTS	INS promoter inh	INS promoter inh cell count	GALR2 agonist	HSV augment	HSV augment primary fold	PKD1 inh
CC1CCc2nn(CC(=O)Nc3ccc(F)cc3F)cc2C1 (stereo unspecified)	100	·	·	-2.9	i	0.97	-11
CCCn1c(SCC(=O)Nc2cc(Cl)ccc2Cl)n[nH]c1=O	101	·	·	·	i	0.89	-2
Cc1nc(N2N=C(c3ccc(Cl)cc3)CC2c2ccco2)sc1C(=O)N(C)C (stereo unspecified)	102	-17	154	·	i	0.86	-5

The list continues:
SMILES	RGS16-Gao HTS	INS promoter inh	INS promoter inh cell count	GALR2 agonist	HSV augment	HSV augment primary fold	PKD1 inh
CCOc1ccccc1C(=O)N1CCN=C1SC	106	·	·	-0.1	i	1	-1
CCn1nnc(-c2ccccc2NS(=O)(=O)c2ccc(C(=O)OC)cc2)n1	116	-14	110	-0.7	i	0.59	3
NS(=O)(=O)c1ccc(N/N=C/c2cn(-c3ccccc3)nc2-c2cccs2)c([N+](=O)[O-])c1	99	·	·	·	i	0.56	-2
Cc1c(NC(=O)c2ccccc2N)cccc1C(=O)O	99	·	·	0.0	i	0.96	3
O=C(Nc1ccc(F)cc1)c1ccc(Cn2cnnn2)cc1	106	50	163	·	i	1	1
CCCCCn1c(SCC(=O)c2ccccc2)nc2cc(C(=O)NCc3ccco3)ccc2c1=O	90	13	101	-2.7	i	0.98	-4
CCCOc1ccc(CNC(=S)NCc2ccc(OC(C)C)cc2)cc1	106	·	·	0.2	i	0.99	2
CCCOc1ccc(N2CC(C(=O)NCCc3ccc(OC)c(OC)c3)CC2=O)cc1 (stereo unspecified)	98	·	·	·	i	0.96	1
CCOc1ccc(N2C(=O)CC(SC(=NC)Nc3cccc(F)c3)C2=O)cc1 (stereo unspecified)	63	·	·	-1.8	i	0.98	-1
COc1ccc(Nc2nc(C)cc(=O)[nH]2)cc1	104	0	150	-2.7	i	0.84	7
CN(C)C(=O)NC(NC(=S)Nc1ccccc1)C(Cl)(Cl)Cl (stereo unspecified)	97	35	82	·	i	1.2	-1
O=c1cc(-c2ccccc2)c2ccccc2[nH]1	100	·	·	-1.2	i	0.86	0
CCN(CC)S(=O)(=O)c1ccc(C(=O)Nc2ccc3c(c2)OCO3)cc1	98	·	·	·	i	0.92	-6
COc1ccc(NC(=O)CCN2CCOCC2)c(OC)c1	94	·	·	·	i	0.95	3
C#CCNC(=O)C1=C[C@@H](C2CCCCC2)C[C@@H](OCCCCO)O1	100	·	·	·	i	0.79	0
CC(C)n1cc(/C=C2/NC(=O)NC2=O)c2ccccc21	110	5	98	·	i	0.86	-5
CN(C)c1ccc(/C=[N+](\[O-])C2N(c3ccccc3)C(=S)SC2(C)C)cc1 (stereo unspecified)	100	-23	110	-2.2	i	0.96	2
Cc1ccc(C(=O)NC2CCS(=O)(=O)C2)cc1S(=O)(=O)N1CCCCCC1 (stereo unspecified)	158	·	·	·	i	0.99	-3
CCCN1Cc2cccc(C(=O)NCc3ccccc3OC)c2C1=O	106	32	151	-1.3	i	0.92	-7
CCC[C@@H]1C[C@@H](C(=O)N[C@H]([C@@H](C)O)[C@H]2O[C@H](SC)[C@H](O)[C@@H](O)C2O)N(C)C1 (stereo partly specified)	101	5	103	-0.4	·	·	-3
O=C(Cc1ccc(-c2ccccc2)cc1)OCC(=O)N1CCCC1=O	104	·	·	·	i	1	-8
O=C(O)CCCC(=O)N1CCN(c2nc(-c3ccccc3)c3ccccc3n2)CC1	98	·	·	-1.2	i	1.1	4
C=CCn1c(COc2ccc(Cl)cc2)nnc1SCC(=O)Nc1ccc(S(N)(=O)=O)cc1	54	36	113	-1.1	i	1	1
O=C(/C=C/c1ccco1)NCC1CCCO1 (stereo unspecified)	105	·	·	-2.7	·	·	6
O=c1[nH]c2cc3c(cc2cc1C(c1nnnn1Cc1ccccc1)N1CCN2CCCC2C1)OCCO3 (stereo unspecified)	104	·	·	-1.8	i	0.95	-12
O=C(NC1CCCc2ccccc21)C1CCN(S(=O)(=O)c2ccccc2)CC1 (stereo unspecified)	88	-85	105	-1.8	·	·	-3
Nc1nc(-c2cccc(Br)c2)cs1	103	·	·	-1.5	i	0.81	-8
CCCCNC(=O)c1onc(CSc2ccc(F)cc2)c1C(=O)NCCCC	104	·	·	·	i	0.86	·
Cc1nccc(-c2sc(-c3cccs3)nc2C)n1	99	·	·	·	i	0.97	·
c1cnc2ccc(C(c3nnnn3C3CCCCC3)N3CCN4CCCC4C3)cc2c1 (stereo unspecified)	102	-32	104	-1.2	i	1	-2
Cc1cc([N+](=O)[O-])nn1CC(=O)N/N=C/c1ccccc1Br	100	·	·	·	i	1.1	·
Cc1ccc(-c2nnc(SCC(=O)N3CCOCC3)nc2-c2ccc(C)cc2)cc1	98	-24	204	-1.2	i	1.1	-4
COC(=O)C1CCN(C2CC(=O)N(c3cc(C)cc(C)c3)C2=O)CC1 (stereo unspecified)	100	52	77	·	i	1	2
O=C(Nc1ccc(Oc2ccccc2)cc1)C1CCCN(c2ncccn2)C1 (stereo unspecified)	99	·	·	-1.4	·	·	0
